PrP 5UTR inh – inhibition of PrP 5' UTR reporter expression | hit rate 0.35% among 340,000 | cell-based PrP 5' UTR mRNA reporter, plate reader | AID 488862 | inhibition, % (test concentration not listed);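 active = every replicate at 50% or more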;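 note: 0 = median of the neutral control wells; tested in H4 reporter cells; numbers are from one replicate; inactives centre near -14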
ugtP null kill – kills S. aureus RN4220 lacking UgtP; hit rate 0.54% among 330,000; S. aureus RN4220 ugtP deletion, OD600 growth, 16 h; some inactives read as strong as hits; growth inhibition, % (no concentration beside the values); AID 1259309;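 active = z-score under -3 and OD600 up to 0.15 on both plates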;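 note: plate controls were untreated wells for no effect and antibiotic for full effect; wells of about 80 µL received 100 nL stock; the first replicate is given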
Mtb hypoxia inh – reduces hypoxia-regulated biosensor signal in M. tuberculosis; M. tuberculosis hypoxia-regulated fluorescent reporter, fluorescence; fluorescence inhibition, % (concentration not given with the values); hit rate 0.1% among 300,000; AID 1159583;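 active = 35 to 45% if threefold the growth effect, above 45% if 1.5-fold the growth effect; inactive = the rest, general growth blockers included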;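 note: wells of about 50 µL received 100 nL stock; 0% = vehicle wells and 100% = reference inhibitor wells; whole bacteria with a GFP reporter of the hypoxia response; strong numbers were not always called active; many hits fall short of the cut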
Sa RN4220 lethal – kills Staphylococcus aureus RN4220; S. aureus RN4220 growth, OD600, 16 h; inhibition, % (concentration not given with the values); hit rate 0.33% among 330,000;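 active = z-score of -3 or lower and OD600 up to 0.18 on both plates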;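 note: plate controls were untreated cells for no effect and reference antibiotic for full effect; stock transfer was 100 nL into about 80 µL; one replicate is shown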
BJeLR lethal – kills HRASV12-expressing BJeLR cells; BJeLR (HRASV12) viability, CellTiter-Glo ATP luminescence, 48 h; reference of the scale not given here; inhibition, % (concentration not given with the values); hit rate 0.17% among 300,000;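 active = replicate mean above 50%; inconclusive = above 50% but judged a plate artefact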;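 note: 50 nL library stock added to about 25 µL; numbers are from one replicate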
Autofluor counter – flagged as autofluorescent in microsphere protease counterscreen. compound autofluorescence counterscreen, microsphere flow cytometry; active compounds read high. fluorescence intensity (test concentration not listed). hit rate 3.1% among 360,000. AID 624483;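 active = at least 3 SD above the mean of all compounds, about 16000 in these data; inconclusive = too few beads counted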;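 note: 100 nL of 1 mM stock went into each well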
Mtb hypoxia inh growth – also measured in Mtb hypoxia inh; calls as there; growth inhibition, %; measured here: M. tuberculosis growth (absorbance);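 0% = vehicle and 100% = reference antibiotic; read after six days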
Starred values were filed as active, the others as inactive; ? = inconclusive; · = not tested or not shown; & = joins results of further samples.

SMILES	PrP 5UTR inh	ugtP null kill	Mtb hypoxia inh	Mtb hypoxia inh growth	Sa RN4220 lethal	BJeLR lethal	Autofluor counter
O=C(Cn1cc(C(=O)C2CCCCC2)c2ccccc21)NCC1CCCO1 (stereo not given)	7	3	5	-4	-0.5	-1	4214
CCOCCCNCc1cc(Br)ccc1OCc1ccccc1	-21	-5	20	2	2.5	-4	2508
NC(=S)N/N=C/c1ccccc1OCc1cccc(Cl)c1	-16	·	·	·	·	-12	2502
Cc1ccc(NC(=S)N(Cc2cccs2)Cc2cc3cccc(C)c3[nH]c2=O)cc1	-23	11	2	5	0.5	9	2199
CC1CC(=O)C2=C(C1)Nc1ncnn1C2c1ccccc1 (stereo not given)	-1	-4	-8	-8	-2.3	-6	?
CS(=O)(=O)Nc1ccccc1C(=O)NCc1ccccc1Cl	-15	·	·	·	·	6	4421
O=C(Nc1ccc(NC(=O)c2cccnc2Cl)cc1)c1cccc(Cl)c1	-46	11	9	-2	0.0	-1	3599
O=C(c1cccc(F)c1)N1CCN(c2ccc([N+](=O)[O-])c3cccnc23)CC1	-3	1	12	6	5.3	2	3356
Cc1cc(C(=O)Nc2c(F)cc(F)cc2Br)c(C)o1	-15	3	-6	-14	-1.1	0	17675*
CC1CC1C(=O)OCC(=O)Nc1cccc([N+](=O)[O-])c1 (stereo not given)	-34	8	17	7	9.3	-8	4252
CCC(c1ccc(O)c(O)c1)C(CC)c1ccc(O)c(O)c1 (stereo not given)	-11	34	17	4	26	·	3031
CCOC(=O)C1CCN(C(=O)C2CCN(S(=O)(=O)c3ccc4c(c3)CC(C)N4C(C)=O)CC2)CC1 (stereo not given)	-2	14	-11	-13	8.0	-1	4262
COc1ccc(CCNC(=O)Cc2cc(OC)c(OC)cc2Br)cc1OC	-27	1	6	0	2.5	-1	3430
Cn1c(N)cc(=O)n(Cc2ccccc2)c1=O	-16	0	6	13	4.2	4	3431
CCCCn1c(N)c(N(CC(C)C)C(=O)c2ccc(-c3ccc([N+](=O)[O-])cc3)o2)c(=O)[nH]c1=O	11	·	·	·	·	7	4730

Compound profiles (already shown):
`CC1CC1C(=O)OCC(=O)Nc1cccc([N+](=O)[O-])c1` (stereo not given) as listed: PrP 5UTR inh: -34; ugtP null kill: 8; Mtb hypoxia inh: 17; Mtb hypoxia inh growth: 7; Sa RN4220 lethal: 9.3; BJeLR lethal: -8; Autofluor counter: 4252
`CCOCCCNCc1cc(Br)ccc1OCc1ccccc1` as listed: PrP 5UTR inh: -21; ugtP null kill: -5; Mtb hypoxia inh: 20; Mtb hypoxia inh growth: 2; Sa RN4220 lethal: 2.5; BJeLR lethal: -4; Autofluor counter: 2508

The list goes on.
SMILES	PrP 5UTR inh	ugtP null kill	Mtb hypoxia inh	Mtb hypoxia inh growth	Sa RN4220 lethal	BJeLR lethal	Autofluor counter
COc1ccc(CC2(C)OC(c3ccc(C)c([N+](=O)[O-])c3)=NN2C(C)=O)cc1 (stereo not given)	-37	6	-14	-7	4.2	-2	6309
O=C(CSc1nc2ccccc2o1)Nc1ccc(Cl)cc1	-26	-2	8	8	1.3	2	10017
CCOC(=O)c1ccccc1N1C(=O)C2Sc3[nH]c(=O)sc3C(/C=C/c3ccccc3)C2C1=O (stereo not given)	-18	4	9	1	7.7	0	2494
O=C(O)C1CCCN(C(=O)c2cccc3ccccc23)C1 (stereo not given)	-17	2	2	10	4.5	-1	3666
Cc1c(Cl)cnc(NC(=O)COC(=O)CNC(=O)c2ccccc2)c1Cl	-5	4	5	5	6.8	·	·
CCc1ccccc1NC(=O)C1CCCN(c2ncnc3onc(-c4ccc(F)cc4)c23)C1 (stereo not given)	-11	3	7	8	1.7	11	5421
COc1cccc2cc(/C(=N/O)c3ccccc3)oc12	-24	·	·	·	·	-8	3322
O=C1CNC(=O)/C1=C\N1CCCCC1	-9	-1	3	5	5.3	-3	8901
Cc1noc(C)c1COc1ccc(C(=O)OCC(=O)Nc2c(C)n(C)n(-c3ccccc3)c2=O)cc1	-22	6	-1	-1	-1.7	-1	2022
CCCCCCCC[n+]1cccc(C(=O)N2c3c(nc(N)[nH]c3=O)NC(C)C2C)c1 (stereo not given)	-17	·	·	·	·	-2	2172
CCOC(=O)CC(=O)CSc1ncnc2c1nnn2-c1ccc(F)cc1	-6	·	·	·	·	2	4514
CC(=O)Nc1ccc(C(C)=NNC(=O)c2ccc(CN3CCOCC3)cc2)cc1	·	-2	7	-1	-0.7	·	·
O=C(NCc1ccncc1)C(=O)NCc1ccco1	-16	3	17	4	3.4	-2	2507
CCN1CCCC1CNC(=O)c1cc(S(=O)(=O)N(C)C)ccc1Cl (stereo not given)	-17	5	10	2	-1.6	-5	3892
CCCn1c(SCC(=O)Nc2cc(S(=O)(=O)N3CCOCC3)ccc2OC)n[nH]c1=O	-6	-3	7	5	0.0	-17	8656
O=S(=O)(c1ccccc1)c1nnn2c1nc(NC1CCN(Cc3ccccc3)CC1)c1ccccc12	-6	2	9	3	0.6	4	6202
O=C(NNS(=O)(=O)c1cc(Cl)cc(Cl)c1)c1sccc1-n1cccc1	-16	-6	18	5	14	3	3749
COc1ccc(N=Nc2ccc(O)c3ncccc23)cc1	13	24	4	2	19	26	2756
O=C1C2C3c4ccccc4C(c4ccccc43)C2C(=O)N1Cc1ccco1 (stereo not given)	-11	-1	·	·	2.8	-4	2558
O=C(CNC(=O)c1ccc(-c2ccccc2)cc1)Nc1cccc(CO)c1	-11	-2	0	3	2.0	·	3642
Cc1ccc(C)n1-c1nccc(-c2ccco2)n1	-7	0	7	-4	6.2	-1	4413
COCc1cc(=O)[nH]c(/N=C(\N)Nc2ccc(Oc3ccccc3)cc2)n1	-8&-6	·	·	·	·	11	9440
Cc1cc(C)cc(NCc2cc3c(cc2[N+](=O)[O-])OCO3)c1	-3	1	4	0	-4.1	-9	10394
COc1ccc2cc(/C=C3\SC(=S)NC3=O)c(N3CCOCC3)nc2c1	-9	90*	1	-3	89*	-5	2113
COC(=O)CSc1nnc(C)n1-c1cccc(OC)c1	-3	4	6	3	4.0	-8	3891
Cc1ccccc1C(=O)N/N=C1/SCC(=O)N1Cc1ccc2c(c1)OCO2	3	·	·	·	·	10	2127
COc1ccc(-n2ccnc2CN2CCN(C3CCCC3)C(CCO)C2)cc1 (stereo not given)	-21	10	0	-12	1.1	0	4322
CCOC(=O)C1(c2ccccc2)CCN(CC(O)c2ccc(NC(C)=O)cc2)CC1 (stereo not given)	-33	0	11	16	3.8	·	4142
COc1ccc(C)cc1NC(=O)C(Sc1nncn1C)c1ccccc1 (stereo not given)	-12	8	9	0	0.3	1	3379
CCOC(=O)N1CCN(S(=O)(=O)c2ccc3c(c2)CC(C)N3C(C)=O)CC1 (stereo not given)	-26	7	-5	-6	1.0	2	5047
CCCCOCCCn1c(N)c(C(=O)OCCOC)c2nc3ccccc3nc21	0	7	·	·	0.1	1	4933
Cc1ccc(S(=O)(=O)N2CCC(C(=O)OC(C)C(=O)NC(N)=O)CC2)cc1C (stereo not given)	13	11	-1	-1	5.3	8	4247
COc1ccc(C(=O)NC(=S)N2C[C@H]3C[C@H](C2)c2cccc(=O)n2C3)cc1OC	-3	1	·	·	5.9	-8	6044
CC(=O)c1c(O)cc(=O)n(-c2ccccc2)c1-c1ccc(Cl)cc1	-23	-2	8	6	3.0	-10	2003
Clc1ccc(-c2nnc(NCc3ccccc3)c3ccccc23)cc1	-20	1	1	3	-6.0	2	8719
O=C1CCCN1CC(O)CS(=O)(=O)Cc1ccccc1Cl (stereo not given)	-8	5	3	8	4.0	-3	3052
CCOc1cc(NS(=O)(=O)c2ccc(Cl)cc2)c(OCC)cc1NC(=O)CC(C)C	5	-4	-3	14	2.5	2	11392
C=C(C)CNC(=S)NN=C(C)c1ccc(OC)cc1	·	10	3	-1	5.3	·	·
Cc1onc(C(=O)NCc2ccccn2)c1[N+](=O)[O-]	-23	-1	3	6	7.5	4	2004
COC(=O)CCN(C(=O)c1ccc(N2CCCCC2)c([N+](=O)[O-])c1)c1ccccn1	-9	1	11	2	3.2	-6	4034
CCCCc1cc(=O)oc2cc(C)cc(OCC(=O)NC(Cc3ccc(Cl)cc3)C(=O)O)c12 (stereo not given)	-6	-7	·	·	0.4	-8	5855
COc1ccccc1-c1ccc(C(=O)O)o1	-3	-4	·	·	-0.4	-2	2259
COc1ccc(C(C)=O)cc1COC(=O)CSCC(=O)Nc1ccc(C)cc1	-29	6	5	5	-1.2	7	5118
CCOc1ccccc1C(=O)NCC(=O)NCC(c1ccc(OC)cc1)N1CCOCC1 (stereo not given)	-21	7	5	-6	7.2	8	6571
C/C(=N\NC(=O)c1cccc2ccccc12)c1cccnc1	-18	·	·	·	·	-7	6382

Pulled by structure from the entries so far:
SMILES	PrP 5UTR inh	ugtP null kill	Mtb hypoxia inh	Mtb hypoxia inh growth	Sa RN4220 lethal	BJeLR lethal	Autofluor counter
Cc1ccc(S(=O)(=O)N2CCC(C(=O)OC(C)C(=O)NC(N)=O)CC2)cc1C (stereo not given)	13	11	-1	-1	5.3	8	4247
O=C(Nc1ccc(NC(=O)c2cccnc2Cl)cc1)c1cccc(Cl)c1	-46	11	9	-2	0.0	-1	3599
COCc1cc(=O)[nH]c(/N=C(\N)Nc2ccc(Oc3ccccc3)cc2)n1	-8&-6	·	·	·	·	11	9440
CC1CC(=O)C2=C(C1)Nc1ncnn1C2c1ccccc1 (stereo not given)	-1	-4	-8	-8	-2.3	-6	?

Next structures.
SMILES	PrP 5UTR inh	ugtP null kill	Mtb hypoxia inh	Mtb hypoxia inh growth	Sa RN4220 lethal	BJeLR lethal	Autofluor counter
C=CCNC(=S)N(C1CCCCC1)C1CCCCC1	-6	3	4	-2	0.6	15	3061
Cc1cc2c(s1)c1cnn(CC(=O)NCCc3ccccc3)c(=O)c1n2C	·	-5	·	·	-11	-11	·
O=C(NCC1CCCO1)C(c1cccs1)N(C(=O)c1ccc(-c2ccccc2)[nH]1)C1CCCC1 (stereo not given)	-24	6	7	2	-2.4	-2	2768
Cc1onc(-c2ccccc2)c1C(=O)c1c[nH]c(C(=O)NCc2ccccn2)c1	-17	-7	-3	-2	7.0	5	3191
C/C(=N\S(=O)(=O)c1ccc(C)cc1)NC(=S)Nc1ccccc1	-8	11	4	2	4.4	2	4512
CC(=O)N/C(=C/c1ccc2c(c1)OCO2)C(=O)O	-19	-4	9	-1	6.8	4	3932
COC(=O)CN1C(c2ccccc2)=Nc2ccc(Cl)cc2C1c1ccccc1 (stereo not given)	-7	22	2	2	3.3	7	6550
COCc1ccc(-c2c(-c3ccsc3)sc3ccccc23)cc1	-8	78	15	7	-21	·	2948
O=C(N/N=C/c1c(F)cccc1Cl)c1ccc(Cn2cc(Br)cn2)o1	-24	·	·	·	·	11	2279
COc1cc(C=NO)ccc1OCc1ccccc1Cl	·	5	9	2	4.4	·	·
O=C(Nn1c(Cc2cccs2)nc2ccccc2c1=O)c1ccc(F)c(F)c1	-15	-17	-4	0	-0.1	-7	4236
CC1CCCCC1NC(=O)CCCN1C(=O)c2ccccc2C1=O (stereo not given)	-12	0	-6	-1	2.4	·	5530
CCCCOc1ccc(C(C)NC(=O)C2CCCN(S(=O)(=O)CCC)C2)cc1 (stereo not given)	-50	10	7	4	2.6	0	10266
CC(C)C(NS(=O)(=O)c1ccc2c(c1)Cc1cc(S(=O)(=O)NC(C(=O)O)C(C)C)ccc1-2)C(=O)O (stereo not given)	-5	5	-2	5	0.5	-9	3767
CC(Oc1cc2oc(=O)c3c(c2cc1Cl)CCCC3)C(=O)NCc1ccncc1 (stereo not given)	0	-4	-5	6	5.6	4	5410
CCOC(=O)Cn1cc(C#N)c(=O)[nH]c1=O	-14	-1	5	6	1.3	-7	4337
COc1ccc(OC)c(S(=O)(=O)N2CCC3(CC2)CC(=O)c2ccccc2O3)c1	-11	3	9	-1	8.4	1	5865
Cc1ccc(S(=O)(=O)N2[C@@H](c3cccc(C)c3)C(C(=O)O)=C[C@H]2C(C)(C)C)cc1	-18	5	-5	3	15	·	2965
COCCn1c(SCC(=O)Nc2ccccc2F)nc2c([nH]c3ccccc32)c1=O	-3	-9	17	-9	1.8	-7	5055
Oc1ccc(C[C@H]2CNCCN2CCC23CC4CC(CC(C4)C2)C3)cc1	-18	·	·	·	·	15	3191
O=C(Cn1cnc2c(cnn2-c2ccc(Cl)cc2)c1=O)NCCc1ccccc1	-5	6	-7	13	9.4	4	3269

Screening data from PubChem.
